# Compound activity as filed in PubChem.
# GLA inh pH 4.5 – inhibitors of human alpha-galactosidase A at pH 4.5; P06280; purified enzyme, 4-MU-alpha-Gal fluorescence, pH 4.5; activity change, negative = inhibition, % at 105 µM; 230,000 tested, under 10 active; inconclusive = small, poorly fitted or top-dose-only inhibition, or a rising curve; inactive = flat fitted curve, though single readings scatter; no compound was filed as active;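 further: 0% = full activity with enzyme and -100% = basal without enzyme; dose as in the result columns while the protocol names 77 µM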
# Target sequence (P06280 whole entry, looked up): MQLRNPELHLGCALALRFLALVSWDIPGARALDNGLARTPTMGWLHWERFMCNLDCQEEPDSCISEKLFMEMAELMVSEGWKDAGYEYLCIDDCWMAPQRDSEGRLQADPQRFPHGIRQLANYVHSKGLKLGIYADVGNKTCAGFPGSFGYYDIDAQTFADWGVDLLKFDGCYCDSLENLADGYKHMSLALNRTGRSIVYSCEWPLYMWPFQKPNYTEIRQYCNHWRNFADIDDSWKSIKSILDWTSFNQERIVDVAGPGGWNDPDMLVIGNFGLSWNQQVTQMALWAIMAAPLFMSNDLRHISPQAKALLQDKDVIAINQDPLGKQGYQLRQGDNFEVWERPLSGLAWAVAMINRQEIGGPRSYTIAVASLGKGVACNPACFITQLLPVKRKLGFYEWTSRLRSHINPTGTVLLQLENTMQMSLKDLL
# miR-21 reporter – miR-21 reporter, rising signal | Potency, µM (doses to about 38.3 µM), inactives show top-dose reporter change, positive = more light | AID 2288 | HeLa miR-21 FLuc reporter, luciferase, 48 h | 340,000 tested, under 10 active; active = well fitted rising curve with a large enough effect; inconclusive = small, poorly fitted or top-dose-only effect; inactive = no such curve, though single readings can be large or run the other way;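 further: % of control where 0% means no effect; miR-21 action dims this reporter so a rising signal means less miR-21 action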
#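 HeLa cells stably expressing CMV-driven firefly luciferase with a downstream miR-21 binding sequence, endogenously expressing miR-21, were treated with titrations (up to about 40uM final) for 48 hours at 37 degree Celsius. Luciferase luminescence was read after lysis.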
# Rango release inh – inhibition of RanGTP-driven Rango-importin beta dissociation; O95149+P62826; Biochemical FRET Rango-importin beta, RanGTP-induced dissociation; Potency, µM (doses to about 46.1 µM), for the others: top-dose activity change, negative = inhibition; hit rate 0.071% among 340,000; AID 540253; active means falling FRET ratio curve, often poorly fitted, with flat reads before Ran was added; inconclusive means other falling curves, or compound fluorescence or quenching; inactive means flat or rising ratio curve;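 further: potency means the concentration at half of the fitted maximal effect; % of control where 0% means no effect; nearly all actives have a fitted effect of over 45% in size; -100% = wells without RanGTP and RCC1; the record marks most hits as doubtful in a second field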
#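 Quantitative HTS using a FRET biosensor: 0.1 uM Rango, 0.25 uM importin beta, 0.6 uM Ran, 2 mM GTP, 0.2 uM RCC1 final, PBS with DTT, Tween-20 and BSA. Post-read taken 45 min after Ran addition.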
# Rango complex inh – Rango-importin beta binding inhibition; Q14974; hit rate 0.031% among 340,000; Potency, µM (doses to about 92.2 µM), inactives show top-dose inhibition of complex formation; Rango CFP/YFP FRET sensor + importin beta, 45 min; active = rising FRET ratio curve, often small or poorly fitted; inconclusive = mostly compound fluorescence or quenching in the first reads; inactive = flat curves in all reads;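 further: potency means the concentration at half of the fitted maximal effect; 0% = DMSO wells and 100% = buffer wells lacking importin beta; nearly all actives have a fitted effect of over 15% in size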
#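 Inhibition scored from the CFP 486 nm/YFP 530 nm FRET ratio 45 min after adding 0.125 microM importin beta to 50 nM Rango biosensor preincubated 5 min with compound (room temperature, PBS with DTT, Tween-20, BSA). No-importin wells as positive control.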
# Starred values were filed as active, the others as inactive; ? = inconclusive; . = not tested or not shown. This is a subset, so the mix of outcomes need not match the whole.
structure	Rango release inh	miR-21 reporter	GLA inh pH 4.5	Rango complex inh
COC(=O)Cc1nnc(NC(=O)C(C)C)s1	0%	-14%	12	0.7%
O=C(NCC1CCCO1)c1ccc(CNS(=O)(=O)c2cccc(Cl)c2)cc1 (stereo not given)	5%	2%	-7	2.4%
CCOc1c(OC)cccc1C(=O)NCC1(c2ccccc2)CCCC1	-16%	18%	.	0.0%
CSc1ccc(CN2CCC(n3nccc3NC(=O)C3CCOC3)CC2)cc1 (stereo not given)	-9%	0%	.	0.4%
COC(=O)c1ccc(/C=N/Nc2nc3ccccc3[nH]2)cc1	-1%	-47%	4	3.3%
O=C(CC1SC(=Nc2ccc(OC(F)F)cc2)N(CCN2CCOCC2)C1=O)Nc1ccccc1 (stereo not given)	11%	-1%	-4	-0.6%
CN(/N=C/c1cccnc1)c1cnn(-c2ccc(F)c(Cl)c2)c(=O)c1Cl	8%	-19%	-9	-1.0%
O=Nc1c2cc(-c3ccccc3)[nH]nc-2c2ccccc12	2%	-25%	-1	-0.4%
Cc1ccc(S(=O)(=O)N2CCOCC2)cc1NC(=O)COC(=O)COc1ccccc1[N+](=O)[O-]	30%	.	.	3.7%
COc1ccc(C(=O)Nc2ccccc2C(=O)Nc2ccc(C(=O)O)cc2)cc1	-4%	-18%	.	-3.2%
CC(C)(C)C1CCC2(CC1)SCC(=O)N2c1ccccc1 (stereo not given)	22%	0%	10	-0.7%
COc1ccc(C(=O)c2ccccc2)c2c(O)ccc(C(=O)c3ccccc3)c12	-5%	16%	5	-1.3%
COCCNS(=O)(=O)c1ccc2c(c1)n(C)c(=O)n2C	15%	0%	6	-4.0%
O=C1/C(=C/c2ccccn2)COc2ccccc21	3%	3%	4	-6.1%
CCOC(=O)c1c(S(=O)(=O)NCC(=O)Nc2ccc(F)cc2)c(C)n(C)c1C	-3%	-6%	.	-0.5%
O=C(/C=C/c1ccc(F)cc1)NC(=S)NNC(=O)c1cnccn1	1%	5%	-4	2.8%
O=C(O)CCC(=O)Nc1cccc(-c2nnc(-c3ccccc3)o2)c1	-17%	-6%	.	?
CCn1c(SCC(=O)Nc2ccc3c(c2)OCCO3)nnc1C1CC1	4%	5%	.	-3.6%
Fc1ccc(NCc2n[nH]c(=S)n2Cc2ccccc2)cc1	0%	8%	1	-1.4%
Cc1onc(-c2c(Cl)cccc2Cl)c1C(=O)O/N=C(\C#N)c1ccccc1	3%	0%	-3	5.1%
Cc1ccccc1C1=N/C(=C/c2cccs2)C(=O)O1	0%	2%	9	?
CCNC(=O)NS(=O)(=O)c1cnccc1Nc1cccc(Cl)c1	5%	-5%	-1	-3.4%
O=C(COc1ccccc1)Nc1cc(NC(=O)COc2ccccc2)cc(C(=O)O)c1	-1%	1%	.	4.9%
COc1ccc(OC)c(N=c2ssnc2Cl)c1	?	-4%	-4	0.1%
c1nc(NCC2(N3CCOCC3)CCCCC2)c2ccsc2n1	9%	-9%	2	-4.2%
Cc1nn(-c2ccccc2)nc1CNC(=O)c1ncoc1-c1ccccc1	-12%	3%	-6	-1.5%
CC12CCC(C(=O)Nc3nc4ccc(Br)cc4s3)(OC1=O)C2(C)C (stereo not given)	-7%	-28%	1	2.0%
O=C(CCn1c(=O)c2ccccc2n(Cc2cccc([N+](=O)[O-])c2)c1=O)N1CCc2ccccc2C1	-9%	-5%	-6	2.1%
O=C(COC(=O)c1ccccc1Br)NC1CCCCCCC1	18%	.	.	-4.4%
CS(=O)(=O)N1N=C(c2ccccc2)CC1c1cccs1 (stereo not given)	0%	-29%	3	-0.7%
Cc1cccc(C)c1NC(=O)c1c(O)c2ccccc2[nH]c1=O	11%	0%	.	0.5%
Cc1[nH]n(-c2ccc(Cl)cc2)c(=O)c1/C=N/n1c(C)nc2ccccc2c1=O	0%	-14%	9	2.1%
N#Cc1nnn(-c2cc(Cl)cc(Cl)c2)c1N	9%	-7%	4	2.8%
O=C(N1CCCC1)n1c(Cc2ccccc2)nc2ccccc21	6%	-3%	-13	-3.5%
COc1cccc(Oc2nc3ncn(Cc4ccccc4)c3c(=O)n2C)c1	0%	-7%	-5	2.6%
CC(=O)c1c(C)[nH]c(C(=O)COC(=O)c2c(C)noc2C)c1C	7%	.	.	0.2%
CCOc1cc(C(=S)N2CCOCC2)ccc1OC	5%	-3%	5	-2.6%
O=C(Nc1n[nH]c(=S)s1)c1ccco1	-6%	-17%	.	4.0%
CCc1nc(N2CCCC(C)C2)c2oc3ccccc3c2n1 (stereo not given)	1%	22%	-12	-2.5%
CCN1CCN(S(=O)(=O)c2ccc(Cl)c(C(=O)N(C)Cc3cccs3)c2)CC1	-13%	.	.	3.3%
CC(C)C(=O)NC(=S)Nc1ccc(S(=O)(=O)N(C)Cc2ccccc2)cc1	13%	22%	0	-1.4%
COc1ccc(NC(=S)NNC(=O)c2ccco2)c(OC)c1	-3%	.	.	-0.2%
Cc1ccc(OCC(=O)N(Cc2ccccc2)c2c(N)n(Cc3ccccc3)c(=O)[nH]c2=O)c(C)c1	-8%	.	.	-1.4%
COC(=O)c1c(C)cc(OC(C)=O)c(C)c1OC(C)=O	6%	0%	1	0.0%
O=C(NCc1cccc(Cl)c1)c1ccc2c(c1)OCO2	-2%	-28%	-10	0.3%
COc1ccccc1CNC(=O)c1ccc(OCc2c(C)noc2C)c(OC)c1	8%	-8%	4	1.3%
Cc1cccc(NC(=S)NCCN2CCOCC2)c1C	1%	5%	6	-6.8%
Cc1ccc(Nc2nc(OC(C(F)(F)F)C(F)(F)F)nc(N3CCOCC3)n2)cc1	20%	0%	-12	1.2%
N#CCC(=O)Nc1sc2c(c1C(N)=O)CCCC2	?	-12%	-18	?
O=C(NCc1ccco1)c1ccc(Br)s1	8%	-12%	3	2.2%
Nn1c(SCC(=O)Nc2ccc(F)cc2)nnc1C1CCCCC1	-5%	-5%	3	-1.0%
Cc1ccccc1NS(=O)(=O)c1cc(C(=O)Nc2cccc([N+](=O)[O-])c2)ccc1C	-5%	23%	-23	-0.1%
O=C(COC(=O)c1ccc(O)cc1)Nc1ccc2[nH]c(=O)[nH]c2c1	-8%	.	.	4.1%
CC(=O)NS(=O)(=O)c1ccc(NC(=O)c2ccccc2F)cc1	7%	-3%	8	-3.5%
O=C(N/N=C(\Cc1ncc[nH]1)c1ccccc1)c1ccccc1	.	-16%	3	.
COc1cccc(CNC(=O)C2CCC(CNc3c(N4CCC(C)CC4)c(=O)c3=O)CC2)c1 (stereo not given)	-17%	1%	0	3.9%
CC(=O)Cc1nsc(NC(=O)c2ccc(COc3cccc(C)c3)o2)n1	10%	-3%	.	-3.7%
Cc1ccc(-c2nc(CS(=O)CC(=O)NCCN3CCCC3)c(C)o2)cc1 (stereo not given)	11%	-3%	-2	0.1%
NS(=O)(=O)c1ccc(NC(=O)CN2CCCc3ccccc32)cc1	-2%	0%	1	?
CCOC(=O)C1CCCN(Cc2cn[nH]c2-c2ccc(F)cc2F)C1 (stereo not given)	2%	6%	7	-2.1%

# Further records:
structure	Rango release inh	miR-21 reporter	GLA inh pH 4.5	Rango complex inh
c1ccc(-c2nn3c(C4CCCCC4)nnc3s2)cc1	1%	-5%	4	-1.1%
Cc1ccc(-n2nc3c(=O)n(CC(=O)NCCc4ccc(Cl)cc4)nc(C)c3c2C)cc1	-7%	3%	.	0.3%
O=C(NCc1ccccc1)c1ccc(CS(=O)(=O)c2ccccc2)o1	9%	5%	5	2.8%
O=c1c(F)cn(C2CCCO2)c(=O)n1Cc1ccccc1Cl (stereo not given)	-5%	-2%	7	-1.2%
CCOC(=O)c1ccc(N2CCN(c3ccccc3F)CC2)c(NC(=O)Nc2ccccc2)c1	1%	17%	-1	0.6%
O=C(Nc1ccccc1N1CCCC1)C1CCN(S(=O)(=O)c2cccc(C(F)(F)F)c2)CC1	-3%	.	.	-3.5%
COc1ccc(NC(=O)c2c(NC(=O)CNCC(C)C)sc3c2CCC3)c(OC)c1	5%	-9%	6	1.9%
Cc1cc(NC(=O)CC2CCCC2)n(-c2nc3ccccc3[nH]2)n1	0%	10%	-6	1.9%
COc1ccc(CCNc2ncnc3c2c(C)c(C)n3CCCN(C)C)cc1OC	-22%	0%	.	1.4%
CCN(CC)C(=O)Cn1cc(C(=O)C(=O)N2CCc3ccccc32)c2ccccc21	-19%	7%	-19	-3.6%
Cc1ccc(NC(=O)c2noc3c2CC(C(C)(C)C)CC3)cc1 (stereo not given)	3%	-2%	-2	-0.5%
O=C(N/N=C/c1ccncc1)c1nc2ccccc2c(=O)[nH]1	9%	-45%	3	0.3%
O=C1C=C(Nc2ccc(F)cc2)c2ccccc2C1=O	3%	.	.	1.3%
CC(C)Cc1nnc(NC(=O)c2ccc3c(c2)NC(=O)C(C)S3)s1 (stereo not given)	13%	.	.	0.8%
N#Cc1c(C(F)(F)F)cc(-c2cccs2)nc1SCc1cccnc1	-12%	1%	?	1.4%
COc1ccc(OCC(O)CNCCNc2nccc(C(F)(F)F)n2)cc1 (stereo not given)	-2%	-13%	-5	-3.0%
Cc1cccc(C)c1NC(=O)CCS(=O)(=O)c1ccc(Br)cc1	34%	-2%	.	-2.1%
O=C(COc1ccc([N+](=O)[O-])cc1)Nc1cccnc1	9%	-11%	-17	-2.9%
CC(C)CC(NS(=O)(=O)c1ccc2c(c1)oc(=O)n2C)C(=O)NC1CCCc2ccccc21 (stereo not given)	-4%	-1%	7	-3.1%
COc1ccc2[nH]c(=O)c(CN(Cc3cccs3)Cc3nnnn3C(C)(C)C)cc2c1	-17%	-1%	-8	1.0%
COC(=O)c1cc(COc2ccc3oc(C)c(C(=O)OC)c3c2)c(C)o1	-16%	9%	-5	-2.0%
O=c1c2ccccc2nnn1Cc1ccc(F)cc1	12%	-6%	0	-9.0%
CCc1ccc(-c2nnn(CCC(=O)OC)n2)cc1	0%	22%	-2	-2.6%
CS(=O)(=O)N1CCN(C(=O)Cc2cccs2)CC1	12%	1%	3	1.5%
Cc1cccc(C)c1NC(=O)C(NC=O)c1ccccc1Cl (stereo not given)	-22%	-2%	8	0.5%
CSc1ncccc1C(=O)NCC(c1cccs1)N1CCOCC1 (stereo not given)	0%	.	.	-3.7%
CCN(CC(=O)N1CCC(C)CC1)S(=O)(=O)c1ccc(C)cc1	-3%	-4%	.	-0.5%
NS(=O)(=O)c1ccc(N/N=C/c2ccc(O)cc2O)c([N+](=O)[O-])c1	-12%	-19%	4	0.4%
